High-throughput results (PubChem BioAssay)
Kir21 inh: inhibitors of mouse Kir2.1 inward-rectifier potassium channel; HEK293-Kir2.1, FluxOR thallium flux fluorescence; stronger effect = lower value; B-score at 10 µM; 310,000 compounds, 0.85% hits; AID 1672, 2009;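 active = fluorescence ratio B-score at or below minus 3 SD of library scores, with starting-brightness B-score within 2 SD, cut at about -4.2 in these data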;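 note: channel flux triggered by added potassium and thallium sulfate stimulus; B-score of peak minus minimum fluorescence over baseline after thallium stimulus; more negative B-score means stronger Kir2.1 block with less thallium influx; some compounds called inactive have numbers as strong as hits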
Target sequence (P35561 whole entry, looked up): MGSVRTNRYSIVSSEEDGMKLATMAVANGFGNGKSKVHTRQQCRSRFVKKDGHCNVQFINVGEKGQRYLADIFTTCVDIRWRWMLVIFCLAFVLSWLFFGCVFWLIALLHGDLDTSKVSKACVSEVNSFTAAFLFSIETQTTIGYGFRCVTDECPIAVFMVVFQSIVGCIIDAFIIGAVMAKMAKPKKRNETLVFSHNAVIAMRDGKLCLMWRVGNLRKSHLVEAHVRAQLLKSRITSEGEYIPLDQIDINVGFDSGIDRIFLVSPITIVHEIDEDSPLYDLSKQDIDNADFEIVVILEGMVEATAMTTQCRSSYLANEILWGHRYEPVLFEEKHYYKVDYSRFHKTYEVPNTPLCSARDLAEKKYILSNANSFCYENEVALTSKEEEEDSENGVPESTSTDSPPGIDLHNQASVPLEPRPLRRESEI
An asterisk follows results filed as active.

compound | Kir21 inh
O=C(NCc1ccccn1)Nc1ccccc1F | 1.12
FC(F)(F)c1ccc(Cl)c(NC2=NCCCCC2)c1 | 0
COC(=O)CCN1CCC(c2cc(-c3cccc(C(F)(F)F)c3)n[nH]2)CC1 | -2.94
CCOC(CCNC(=O)c1cc2c(=O)[nH]c3ccccc3c2s1)OCC | 0.33
Cc1ccc(N2CC(C(=O)Nc3nnc(C(C)C)s3)CC2=O)cc1 (stereo unspecified) | 0.78
Cc1ccc(SCc2noc(C(=O)NCC3CCCO3)c2C(=O)O)cc1C (stereo unspecified) | -1.59
CC(=O)N1CCc2cc(S(=O)(=O)NC3CCCCC3)ccc21 | 0.56
CCC(C(=O)NNC(=O)c1cnccn1)c1ccccc1 (stereo unspecified) | -3.03
CCOC(=O)Cn1c(=O)oc2cc(S(=O)(=O)N3CCCc4ccccc43)ccc21 | 0.07
CCCCCCNC(=O)Cc1ccc(Br)cc1 | 0.77
CC1(C)c2[nH]c3ccccc3c2C[C@H]2C(=O)N(Cc3cccc(F)c3)C(=O)N21 | 2.75
CCS(=O)(=O)/N=C(\N)c1ccccc1 | -1.1
O=c1/c(=C/c2ccccn2)sc2n1CN(c1ccccc1)CN=2 | -0.99
CC(C)[C@H]1C(=O)Nc2ccccc2N1C(=O)N[C@@H](Cc1ccccc1)C(=O)N[C@@H](C(=O)O)c1ccccc1 | -1.74
CC(C(=O)Nc1ccc(O)c(C(=O)O)c1)N1C(=O)/C(=C/c2cccs2)SC1=S (stereo unspecified) | 1.28
Cc1cc(OCCCCNC(C)C)cc(C(C)C)c1 | -1.93
COc1ccc(Cl)cc1Nc1nc(NCCO)nc(N2CCCCC2)n1 | 1.33
COc1ccc(N2CCN(C(=O)Nc3ccccc3Cl)CC2)cc1 | -1.66
CC(C)C(=O)Nc1ccc(C(=O)N/N=C/C2CC3C=CC2C3)cc1 (stereo unspecified) | -0.54
Cc1cc(NC(=O)Cc2ccc(Br)cc2)no1 | -1.19
CCn1ccnc1[C@@H]1C[C@H]2CN(Cc3cccc(Cl)c3)C(=O)[C@]23CCCN13 | -0.56
CN(CC(=O)Nc1ccc(Cl)c(S(=O)(=O)N(C)C)c1)Cc1ccccc1 | 0.46
COc1nc(-c2ccccc2)nc(-c2ccccc2)c1C | 0.55
Cc1cc(C)n(Cc2ccc(C(=O)NCCC3=CCCCC3)o2)n1 | -0.86
CC(=O)N/N=C(\C)c1ccc2c(c1)OCCO2 | -0.03
O=C(NCc1ccc(F)cc1)C1CCC(CNS(=O)(=O)c2cccs2)CC1 (stereo unspecified) | 0.31
COc1ccc(S(=O)(=O)NC(C(=O)NCCc2ccccn2)C(C)C)cc1 (stereo unspecified) | -0.06
Cc1ccccc1NC(=S)N(Cc1cccnc1)Cc1ccccc1Cl | 1.02
O=S(=O)(CS(=O)(=O)c1ccc(Cl)cc1)c1ccc(Cl)cc1 | 0.04
CCNC(=S)NC1CC2CCCC(C1)N2Cc1ccc(C)cc1 (stereo unspecified) | 1.5
COCCCNC(=O)CN(c1cc(Cl)cc(Cl)c1)S(C)(=O)=O | -0.43
NS(=O)(=O)c1ccc(CCNC(=O)CN2CCCCC2)cc1 | -0.09
C=CCn1c(SCc2nnc(-c3ccccc3)o2)nnc1C(O)c1ccccc1 (stereo unspecified) | 0.01
Cc1cnc(NC(=O)/C=C/c2ccc(Br)o2)s1 | 1.88
CCOc1ccc(/C=N/n2nnnc2N)cc1OCC | -1.45
COc1ccc(C(=O)NCc2nnc(SCC(=O)N3CCc4ccccc43)n2Cc2ccccc2)cc1 | 1.43
O=C(Cc1c(F)cccc1Cl)N/N=C/c1cccs1 | -0.09
CCC(C(=O)N1CC2(C)CC1CC(C)(C)C2)N1C(=O)c2ccccc2C1=O (stereo unspecified) | 0.8
COc1ccc(S(=O)(=O)N(CC(=O)NCc2ccncc2)Cc2ccccc2)cc1 | -0.54
CC(C)CCNC(=O)C1CC2Cn3c(nc4cc(Cl)c(Cl)cc43)C2N1C (stereo unspecified) | -1.35

Single values from the list:
Result of Cc1cnc(NC(=O)/C=C/c2ccc(Br)o2)s1 in Kir21 inh: 1.88
Result of CCOc1ccc(/C=N/n2nnnc2N)cc1OCC in Kir21 inh: -1.45
Result of C=CCn1c(SCc2nnc(-c3ccccc3)o2)nnc1C(O)c1ccccc1 (stereo unspecified) in Kir21 inh: 0.01
Result of COCCCNC(=O)CN(c1cc(Cl)cc(Cl)c1)S(C)(=O)=O in Kir21 inh: -0.43
Result of COc1ccc(S(=O)(=O)N(CC(=O)NCc2ccncc2)Cc2ccccc2)cc1 in Kir21 inh: -0.54
Result of NS(=O)(=O)c1ccc(CCNC(=O)CN2CCCCC2)cc1 in Kir21 inh: -0.09

Additional compounds follow:
compound | Kir21 inh
CC/C(C)=N/Nc1nc2c(c(=O)[nH]c(=O)n2C)n1CCc1ccccc1 | 0.12
CCCC(C)C(=O)OCC(=O)Nc1c(Br)cc(C)cc1Br (stereo unspecified) | 0.01
CC(C)C[C@H](NC(=O)c1nc[nH]c1C(=O)N1CCC(C)CC1)C(=O)OCc1ccccc1 | -0.57
COc1ccc(C(=O)N2CCN(Cc3cn[nH]c3-c3ccc(OC)cc3F)CC2)cc1 | 0.78
COc1ccccc1S(=O)(=O)Cc1ccc(C(=O)NCc2ccco2)o1 | -1
Cc1cccc(NC(=O)CN2C(=O)S/C(=C\c3ccccn3)C2=O)c1 | -1.31
Cc1ccn2cc(C(=O)Nc3nnc(C)s3)nc2c1 | 0.4
C[n+]1ccccc1/C=C/c1ccc2ncccc2c1 | 0
CCOC(=O)c1[nH]c2ccccc2c1NC(=O)CN(C)C | -1.54
Cc1ccc(CN(C(=O)Cn2nnc3ccccc32)C(C(=O)NCc2ccco2)c2ccc(C)o2)cc1 (stereo unspecified) | -0.38
OCCCCNCc1cc(Br)ccc1OCc1ccccc1F | 0.27
CCOC(=O)c1ccc(NC(=S)N(CCCN2CCCCC2)Cc2ccco2)cc1 | -0.1
CC1C/C(=N/N2C(=O)CSC2=S)CC(C)(C)C1 (stereo unspecified) | -0.24
COc1ccccc1NC(=S)NC1CC2CCC1C2 (stereo unspecified) | 1.63
Cc1c(C(=O)Nc2ccc(Cl)cc2)c2ccccn2c1C(=O)c1ccccc1 | 0.22
Cc1ccc(N(C(C)C(=O)O)S(=O)(=O)c2c(C)n[nH]c2C)cc1 (stereo unspecified) | 1.26
O=C(c1cc(COc2ccc(F)cc2Cl)on1)N1CCC(OCc2cccnc2)CC1 | -1.4
Cc1ccccc1C(=O)Nc1cccc(NC(=O)c2ccccc2[N+](=O)[O-])c1 | -1.22
CCOC(=O)NC(=O)/C(C#N)=C\NNc1ncc(C(F)(F)F)cc1Cl | 0.65
O=C(CCCCCn1c(=S)[nH]c2cc3c(cc2c1=O)OCO3)N1CCN(C(=O)c2ccco2)CC1 | -0.17
COc1ccc(S(=O)(=O)n2nc(OC(=O)C3CCCCC3)cc2N)cc1 | 0.38
Cc1nnc(NCc2n[nH]c(=O)c3ccccc23)c2ccccc12 | 0.01
Cc1ccc(C)c(N2CCN(S(=O)(=O)c3c(C)[nH]c(C)c3C(=O)N3CCCCC3)CC2)c1 | 1.14
COc1cccc(CCNC(=O)c2ccc(C#N)cc2)c1 | 0.8
C#CCNC(=O)C1=C[C@@H](c2ccc(Br)cc2)[C@H](CCCO)[C@@H](OCC)O1 | -0.09
Cc1[nH]n(-c2ccccc2)c(=O)c1C(=O)c1ccccc1 | 0.42
Cc1c(NC(=O)c2ccc(N3CCCC3)c([N+](=O)[O-])c2)cccc1-c1nc2ccccc2s1 | 0.73
Cc1cc2c(c(=O)n1CCN(C)C)C(c1ccc(Cl)cc1)C(C#N)=C(N)O2 (stereo unspecified) | -0.68
Cc1ccc(C(=O)NCCc2ccc(S(=O)(=O)N3CCCC3)cc2)cc1 | -3.03
Cc1nc(N)c(Cc2ccc(Cl)cc2Cl)c(N)n1 | 1.23
O=C1CCC(=O)N1CCOP1(=O)COc2ccccc2OC1 | -2.84
CCOc1ccc(NC(=S)NC(C)c2cccs2)cc1 (stereo unspecified) | -0.24
COc1ccc(NC(=O)CSc2nnc(-c3ccccc3C)n2C)cc1 | -1.01
O=C(Nc1ccc(OC(F)F)cc1)c1ncc(Cl)c(Cl)c1Cl | 0.48
N#CC1=C(N)N2C(=C(C#N)C13CCCC3)Nc1ccccc12 | 0.9
O=C(COc1nsnc1N1CCOCC1)Nc1ccc(Br)cc1 | 0.32
CC(=O)c1c(C)[nH]c(C(=O)OCc2ccccc2)c1C | -0.65
COc1ccc(N2CCN(Cc3ccc(Br)s3)CC2)cc1 | 0.1
CC(C)Oc1cccc(C(=O)C2CCCN(C(=O)c3csnn3)C2)c1 (stereo unspecified) | 0.36
O=C(CN1C(=O)c2ccccc2C1=O)OCC(=O)N1CCc2ccccc2C1 | 1.41

Retrieved by compound from above, 2 records:
compound | Kir21 inh
CC(C)C[C@H](NC(=O)c1nc[nH]c1C(=O)N1CCC(C)CC1)C(=O)OCc1ccccc1 | -0.57
Cc1ccc(N(C(C)C(=O)O)S(=O)(=O)c2c(C)n[nH]c2C)cc1 (stereo unspecified) | 1.26

Next part:
compound | Kir21 inh
CCOc1ccc(NC(=O)CN2CCN(c3ccc(F)cc3)CC2)cc1 | 0.11
COc1ccc(C(=O)NCc2nnc(SCC(=O)Nc3nnc(C)s3)o2)cc1 | 0.59
C=C1CCN([C@@H](CC(C)C)C(=O)N2CCCC2)S(=O)(=O)c2ccccc21 | -0.36
Cc1cccc(NC(=O)c2cc(=O)c3ccccc3o2)n1 | -0.38
CCOc1ccccc1N(C(=O)c1snc(C(N)=O)c1N)C(C(=O)NCCC(C)C)c1ccco1 (stereo unspecified) | 0.5
O=c1c2cc3c(=O)n(CC4CCCO4)c(=O)c3cc2c(=O)n1CC1CCCO1 (stereo unspecified) | 0.24
CC(=O)c1cccc(N(C(=O)Cn2nnc3ccccc32)C(C(=O)NC2CCCCC2)c2cn(C)nc2C)c1 (stereo unspecified) | -0.37
CCCc1cc(=O)oc2c(C)c(OCC(=O)NC3CC(C)(C)NC(C)(C)C3)ccc12 | -1.85
CCN(CC(=O)Nc1c(F)cccc1F)C(=O)CSCC(=O)Nc1cccc(C)c1 | 1.44
CC1CCCCC1NC(=O)CN1CCN(Cc2ccccc2Cl)C1=O (stereo unspecified) | -0.17
CCOc1ccc(NC(=O)CSC2=NCCN2)cc1 | -0.35
CCOC(=O)N1CCN(c2nc(-c3ccc(OC)cc3)no2)CC1 | -0.84
COc1cccc(C(=O)Nn2c(C)nnc2-n2nc(C)cc2C)c1 | 2.78
COc1ccc(CC(=O)Nc2cc(Cl)ccc2O)cc1 | -1.5
Cc1ccc(-n2c3nc(=O)[nH]c(=O)c-3cc3c(C)nn(-c4ccccc4)c32)c(C)c1 | -1.55
COc1ccccc1NC(=O)COn1nnc2ccc(S(=O)(=O)N3CCOCC3)cc21 | -0.28
CCOc1ccc(-n2c(=O)c3sccc3n(Cc3cccc([N+](=O)[O-])c3)c2=O)cc1 | -0.04
CCSc1nnc(-c2ccc(S(=O)(=O)N3CCCC3)cc2)n1C | -0.72
C=CCOc1ccccc1CNc1ccccc1C | -1.04
CCOC(=O)c1ccc(NC(=O)c2nc(S(=O)(=O)Cc3ccccc3)ncc2Cl)cc1 | 0.07
Cc1ccc2nc(-c3ccc(Br)o3)oc(=O)c2c1 | -0.48
Nc1cc(-c2cccc(F)c2)nn1S(=O)(=O)c1cccc2nsnc12 | -0.01
CCOc1ccc(C(=O)Nc2ccc(S(=O)(=O)Nc3cc(C)on3)cc2)cc1 | 0.06
S=c1[nH]ncn1-c1ccccn1 | -1.47
Cc1ccc(C)c(NC(=S)NCCc2c[nH]c3ccccc23)c1 | -1.69
Cc1cc(OCC(=O)N(C)Cc2ccccc2)cc(C)c1Cl | -1.02
COc1ccc2c(c1)C1OCCC1C(c1ccco1)N2 (stereo unspecified) | -0.06
Cc1ccc(NC(=O)C2CC(=O)N/C(=N/N=C/c3ccco3)S2)cc1 (stereo unspecified) | 0.09
CC(=O)c1c(C)[nH]c(C(=O)OCC(=O)Nc2sc3c(c2C#N)CCC(C)C3)c1C (stereo unspecified) | 0.74
Cc1c(N=C2NN=C(c3ccc(Cl)cc3)CS2)c(=O)n(-c2ccccc2)n1C | -0.24
CC(C)(CC(=O)O)CC(=O)Nc1ccc2c(c1)ncn2CCc1ccccc1 | -0.05
O=C(/C=C/c1cccc(OCc2ccccc2)c1)c1cccnc1 | -0.01
CC(C)C(NC(=S)NCc1ccccc1)C(=O)O (stereo unspecified) | -1.9
Cc1noc(C)c1C(=O)Nc1ccc(-n2ccc(C(F)(F)F)n2)cc1 | 0.84
O=C(/C=C/c1ccc2ccccc2n1)N1CCN(c2ccccc2)CC1 | 1.46
CC(C)c1ccc(NC(=O)N2CCC(c3nc4ccccc4o3)CC2)cc1 | -0.02
COc1ccccc1CNC(=O)COC(=O)c1ccc(-n2cnnn2)cc1 | 0.3
COc1ccc(Cl)cc1C(=O)Nn1cnc2ccccc2c1=O | -1.06
CC1CCCCN1S(=O)(=O)CCNC(=O)c1ccccc1 (stereo unspecified) | -0.08
Cc1cccc(C(=O)NC(=O)Nc2c(C)cc(C)nc2C)c1 | 1.23
COCCNC(=O)Cn1cnc2c(cnn2-c2ccc(C)cc2)c1=O | -1.01
COCCn1c(SCC(=O)NC2CCCCC2C)nnc1-c1ccncc1 (stereo unspecified) | 0.93
CCOc1cccc(CNn2cnnc2)c1OCc1ccccc1 | -1.34
O=C(CN(C(=O)Cn1nnc(-c2cccs2)n1)c1ccc2c(c1)OCCO2)NCc1ccccc1 | -2.35
Cc1ccc(N(CC(O)CN(C)C)S(=O)(=O)c2ccccc2)cc1 (stereo unspecified) | -0.06
CC(C)Oc1ccc(CNC(=S)N/N=C/c2cccnc2)cc1 | -0.7
COc1ccccc1C(=O)NCCn1cc(SCC(=O)NCc2ccco2)c2ccccc21 | -1.13
CC(C)CCNC(=O)COc1ccc(C(=O)c2ccccc2)cc1 | -1.12
CC(C)[C@H]1C=C(C(=O)O)O[C@@H](OCc2ccc(CO)cc2)C1 | -0.45
COc1cc(OC)c(S(=O)(=O)Nc2ccc(C)cn2)cc1NC(C)=O | -1.8

An excerpt; most or all hits stand in other tables.
